Screens from PubChem BioAssay.
D2 ag – Beta-Arrestin HTS for Positive Allosteric Modulators of the Human D2 Dopamine Receptor: Agonists | D(2) dopamine receptor (Homo sapiens), P14416 | DiscoveRx PathHunter D2 beta-arrestin, luminescence, 90 min; 100% = 57 uM dopamine signal | activation, % (test concentration not listed) | 360,000 compounds, 0.084% hits; in the data active = activation above about 40%; inconclusive = about 15% to 40%; inactive = below about 15%; further: compound concentration not given in the record; the text of the record calls up to 30% inactive
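DiscoveRx PathHunter D2 beta-arrestin cells (2,100/well) attached overnight, then compound-stimulated 90 min at 37 C in HBSS/10 mM HEPES/0.1% Tween-20 buffer; beta-galactosidase complementation read by luminescence after 1 h at ambient temperature. Dopamine 57 uM final (EC100) as control.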
TRPML1 ag – qHTS for Agonists of the Human Mucolipin Transient Receptor Potential 1 (TRPML1) | TRPML1-expressing cells, Ca2+ dye fluorescence, FDSS; host cell line not named in the record; reference of the full effect not given here | activation, % (test concentration not listed) | 410,000 compounds, 0.12% hits | AID 624414, 2012; in the data active = activation above about 50%; inconclusive = about 30% to 50%; inactive = below about 30%; further: 0% is about no effect; the text of the record puts the active cut at 80%
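Cells: TRPML1-DL, 1X Tet inducer, ~16 h at 37 degrees C/5% CO2. Dye: ABD Ca8 no-wash + quencher, 45-90 min RT. Read: 10 s baseline, compound add, 110 s agonist phase; 54-4 EC80 (4uM final), 110 s antagonist phase.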
CtBP-E1A inh – qHTS Assay for Inhibitors of the CtBP/E1A Interaction. CtBP / adenovirus E1A interaction (AlphaScreen). AlphaScreen GST-E1A/His-CtBP binding, 1536-well; hits give low values; control for the full effect not named in the record. activity change, % (no concentration beside the values). 340,000 compounds, 0.49% hits; in the data active means activity change below about -65%; inconclusive means about -30% to -65%; inactive means above about -30%; further: on the % scale 0 is the no-effect control and ±100 the full control effect
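Protein mix (5X: 125 nM each GST-E1A, His-CtBP) was incubated with pinned compound 2 h at 37 deg C in dark, in 50 mM Tris pH 8.0 buffer with 300 mM NaCl. Glutathione donor and nickel acceptor beads followed; AlphaScreen signal read after 1 h.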
Six1-Eya2 inh – qHTS Assay for Inhibitors of the Six1/Eya2 Interaction | Homeobox protein SIX1 (Homo sapiens) + Protein phosphatase EYA2 (Homo sapiens), … | AlphaScreen GST-Six1/His-Eya2 binding, biochemical; hits give low values; control for the full effect not named in the record | activity change, % (test concentration not listed) | 360,000 compounds, 0.56% hits | AID 651725, 2012; in the data active = activity change below about -65%; inconclusive = about -30% to -65%; inactive = above about -30%; further: on the % scale 0 is the no-effect control and ±100 the full control effect
Target sequence (O00167 whole entry, looked up): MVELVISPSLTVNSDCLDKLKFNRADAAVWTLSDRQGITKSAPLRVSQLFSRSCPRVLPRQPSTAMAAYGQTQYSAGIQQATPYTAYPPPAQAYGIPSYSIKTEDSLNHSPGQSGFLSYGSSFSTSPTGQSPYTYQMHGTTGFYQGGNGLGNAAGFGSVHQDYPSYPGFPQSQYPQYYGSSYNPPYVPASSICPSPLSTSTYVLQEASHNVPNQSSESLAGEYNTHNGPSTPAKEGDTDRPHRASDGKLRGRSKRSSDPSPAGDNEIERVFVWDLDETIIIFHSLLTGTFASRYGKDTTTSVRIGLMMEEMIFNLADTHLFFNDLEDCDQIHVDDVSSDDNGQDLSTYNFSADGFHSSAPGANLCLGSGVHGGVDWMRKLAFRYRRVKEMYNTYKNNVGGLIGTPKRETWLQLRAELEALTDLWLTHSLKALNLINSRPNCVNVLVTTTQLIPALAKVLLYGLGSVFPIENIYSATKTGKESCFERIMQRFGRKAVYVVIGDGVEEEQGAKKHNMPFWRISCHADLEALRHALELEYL
Target sequence (Q15475 whole entry, looked up): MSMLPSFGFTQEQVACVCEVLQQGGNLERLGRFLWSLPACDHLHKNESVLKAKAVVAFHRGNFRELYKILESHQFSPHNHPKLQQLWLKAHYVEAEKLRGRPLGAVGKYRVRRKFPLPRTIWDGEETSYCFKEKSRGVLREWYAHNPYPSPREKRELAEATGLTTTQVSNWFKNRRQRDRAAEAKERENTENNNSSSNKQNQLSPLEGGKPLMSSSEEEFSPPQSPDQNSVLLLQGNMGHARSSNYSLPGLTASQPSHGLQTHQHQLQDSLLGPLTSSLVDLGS
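Compounds are tested against tagged Six1 and Eya2 proteins bridged by glutathione donor and nickel acceptor beads; after a one-hour incubation at 37 °C without light, AlphaScreen emission is recorded.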
PINK1 modulator – A Quantitative High throughput Screen to Identify Chemical Modulators of PINK1 Expression; PINK1 immunofluorescence, high-content cytometry, 24 h; Potency, µM (titrated, usually from 76.6 µM), inactives show at the top dose activation (PINK1 increase), usual class: activators; 410,000 compounds, 0.2% hits; active = well fitted activation curve with a large enough effect; inconclusive = small, poorly fitted or top-dose-only effect; inactive = flat fitted curve, though single readings scatter; cell line not stated here;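 further: potency means the concentration at half of the fitted maximal effect; % of control where 0% means no effect; nearly all actives have a fitted effect of over 65% in size; a mitochondrial uncoupler was the plate control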
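Readout is PINK1 immunofluorescence, quantified alongside mitochondrial, cell and nuclear markers by laser-scanning microplate cytometry. Cells from a stable line were exposed to compound titrations (5 concentrations) for 24 hours, with CCCP controls.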
TRPML1 blocker – qHTS for Inhibitors of the Human Mucolipin Transient Receptor Potential 1 (TRPML1). 390,000 compounds, 0.02% hits. TRPML1-inducible cells, Ca2+ dye fluorescence, FDSS; hits give low values; inhibition of EC80 agonist-evoked calcium signal. activity change, negative = inhibition, % (test concentration not listed). Mucolipin-1 (Homo sapiens), Q9GZU1. AID 624415, 2012; in the data active means activity change below about -50%; inconclusive means about -30% to -50%; inactive means above about -30%;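 further: stimulus is agonist 54-4 at its EC80 concentration; on the % scale 0 is the no-effect control and ±100 the full control effect; compound concentration not given in the record; the text of the record puts the active cut at -80%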
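Calcium fluorescence in TRPML1-DL cells induced overnight with Tet: a 110 s read after compound pin addition, then a 110 s antagonist read after challenge with 54-4 at 4 uM final (EC80).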
* marks the source's active call; other numbers are inactive results; ? = inconclusive; · = no result given; & = joins results of further samples; [ ] = remark or other dose.

SMILES | D2 ag | TRPML1 ag | CtBP-E1A inh | Six1-Eya2 inh | PINK1 modulator | TRPML1 blocker
CCc1ccccc1NC(=O)CN(Cc1ccccc1)S(=O)(=O)c1ccc(Br)cc1 | · | 0.7 | · | · | 5.4% | 51
CCCn1nnnc1SCC(=O)Nc1nnc(CC)s1 | -2.5 | -0.1 | 6 | -2 | -1.2% | 2
COc1ccc(C(=O)CN(CCC(=O)O)S(=O)(=O)c2ccc([N+](=O)[O-])cc2)cc1 | 7.2 | -0.6 | 7 | 1 | -0.2% | -3
C=CCc1c(O)nc(SCC(=O)c2ccccc2)[nH]c1=O | -3.7 | -0.3 | 5 | -6 | 7.5% | 42
COc1cc(/C=C\C(=O)Nc2cc(=O)n(C)c(=O)n2C)cc(OC)c1OC | -1.3 | 0.0 | 12 | 2 | 3.7% | 2
CC(=O)OC(C=C(C)C)C/C(C)=C/COc1c2ccoc2cc2oc(=O)ccc12 (configuration not stated) | 2.2 | 2.8 | 7 | 13 | 2.0% | 60
CCCN(CCC)S(=O)(=O)c1ccc(C(=O)Nc2sc3c(c2C(=O)OC)CCN(CC)C3)cc1 | · | 1.1 | · | · | 13% | -20
COc1ccc(CCNC(=O)c2c(O)c3c([nH]c2=O)CCCC3)cc1 | -0.2 | -0.5 | -3 | -16 | 7.7% | 8
CC(=O)c1cccc(S(=O)(=O)NCCC(=O)Nc2ccc(S(N)(=O)=O)cc2)c1 | -2.7 | 0.3 | -5 | -7 | 3.5% | 13
COc1ccc(NC(=O)c2ccc3c(c2)CCN3S(=O)(=O)c2ccc(C)cc2)cc1Cl | · | 0.6 | · | · | 0.3% | 37
COC(=O)c1ccc(NC(=O)C23CCC(C)(C(=O)O2)C3(C)C)cc1 (configuration not stated) | 2.0 | 4.7 | 5 | 1 | -2.9% | -14
O=C(Cn1cccc1C(=O)c1ccccc1)NCCN1CCCCCC1 | -1.7 | -1.1 | -10 | 4 | -2.5% | 4
NC(=O)c1ccc(NC(=O)COC(=O)CC2Sc3ccccc3NC2=O)cc1 (configuration not stated) | -2.1 | -0.9 | · | -4 | -0.4% | -15
COc1ccc(-c2ccc(F)cc2)cc1[C@H]1[C@H]2C=CC[C@@H](C)[C@@H]2C(=O)N1Cc1ccccc1 | -3.7 | 7.8 | -10 | -8 | ? | 82
O=C(c1ccc(OC2CCN(Cc3ccccn3)CC2)cc1)N1CCCC(O)C1 (configuration not stated) | 0.0 | -0.2 | 3 | 0 | 1.6% | -21
Cc1cccc(NC(=O)c2ccccc2[N+](=O)[O-])n1 | -2.9 | -1.0 | 4 | -3 | 0.9% | 8
O=C(c1sc2cc(F)ccc2c1Cl)N1CCN(c2ccccc2)CC1 | -2.2 | -0.5 | -24 | -19 | 1.8% | -9
Cc1cccc(NC(=S)NNc2cccc(Cl)c2)c1 | -6.5 | 0.8 | -5 | -6 | 2.8% | -12
CN(Cc1ccco1)S(=O)(=O)c1csc(C(N)=O)c1 | 3.6 | 0.1 | · | -4 | 1.2% | 23
O=C(NCCN1CCOCC1)C(=O)NCC1OCCN1S(=O)(=O)c1ccc(Br)cc1 (configuration not stated) | -5.3 | -0.3 | 12 | -1 | 2.8% | 21
CC(=O)c1ccc(NC(=O)c2ccc(NC(=O)c3ccco3)cc2)cc1 | -4.1 | -0.3 | -10 | 0 | 5.3% | 12
Nc1nnc(CC(=O)N/N=C/c2cccc([N+](=O)[O-])c2)s1 | 4.1 | -0.5 | 11 | -18 | -1.1% | 5
CS(=O)(=O)N(CC(=O)N1CCCC1)c1cccc(C(F)(F)F)c1 | -2.5 | -0.5 | -3 | 3 | 0.2% | -4
CCOc1cc(C(=O)Nc2ccon2)cc(OCC)c1OCC | -2.7 | 1.5 | 1 | 16 | ? | -7
COc1ccc(C(=O)NCc2nnc(SCC(=O)Nc3nc4ccccc4s3)o2)cc1OC | -2.3 | 1.9 | 1 | -2 | 1.2% | -15
CCC(=O)Nc1nnc(SCCOC)s1 | -3.2 | -0.7 | -7 | -2 | 0.0% | 8
O=S1(=O)CCO[C@H]2Cc3ccccc3[C@H]2N1Cc1ccccc1 | -2.2 | -0.3&-1.0 | · | -8 | -0.5% | -14
CN1/C(=C\C(=O)C(F)F)C(C)(C)c2ccccc21 | 1.0 | -1.1 | 17 | 10 | -0.6% | 20
COc1ccc(NC(=O)CN(C)C(=O)CSc2nc3ccccc3s2)cc1 | -0.1 | -0.7 | 1 | -2 | 3.4% | 6
CC(C)(C)NC(=O)NC(=O)COC(=O)CNC(=O)c1cc(Cl)cc([N+](=O)[O-])c1 | ? | 1.7 | 11 | 3 | 0.2% | -5
CCO/C=C1\N=C(c2ccc(F)cc2)OC1=O | -2.2 | 0.9 | 1 | 6 | -2.7% | 4
COc1ccccc1CNC(=O)c1ccc2[nH]c(C)c(C)c2c1 | · | 3.3 | · | · | 0.1% | 16
CCc1noc(C)c1C(=O)Nc1nnc(C(CC)CC)s1 | -1.0 | 0.9 | -9 | 11 | 2.7% | 9
COc1ccc(NC(=O)Nc2nnc(C)s2)cc1 | · | -1.2 | · | · | 1.2% | 17
COc1cccc(/C=N/NC(=O)c2ccncc2)c1OC(=O)c1ccc(Br)cc1 | 9.0 | 2.4 | -81* | ? | -1.3% | -17
O=[N+]([O-])c1ccc2nc[nH]c2c1 | 1.3 | 2.4&-0.7 | -13 | -6 | -1.5%&-0.5% | -5
CCN(CCn1cccn1)Cc1nc(-c2ccc(OC)cc2)no1 | 2.6 | -0.2 | 11 | 6 | 2.2% | -21
Cc1cccc2c1cnn2C(=O)Nc1ccc(Br)cc1F | 0.0 | -0.4 | 12 | 5 | 1.2% | 10
CC(NC(=O)c1ccccc1NC(=O)CN1CCN(c2ccccc2O)CC1)c1ccccc1 (configuration not stated) | 3.7 | 1.0 | 12 | -3 | 3.1% | 6
CCOc1ccc(OCC(=O)OCC(=O)N2CCN(S(=O)(=O)c3ccc(C)cc3C)CC2)cc1 | 0.0 | -0.1 | -5 | 4 | 5.0% | -15

An excerpt from above in order of molar mass, rising:
SMILES | D2 ag | TRPML1 ag | CtBP-E1A inh | Six1-Eya2 inh | PINK1 modulator | TRPML1 blocker
CCO/C=C1\N=C(c2ccc(F)cc2)OC1=O | -2.2 | 0.9 | 1 | 6 | -2.7% | 4
CCC(=O)Nc1nnc(SCCOC)s1 | -3.2 | -0.7 | -7 | -2 | 0.0% | 8
COc1ccc(C(=O)NCc2nnc(SCC(=O)Nc3nc4ccccc4s3)o2)cc1OC | -2.3 | 1.9 | 1 | -2 | 1.2% | -15

Following part:
SMILES | D2 ag | TRPML1 ag | CtBP-E1A inh | Six1-Eya2 inh | PINK1 modulator | TRPML1 blocker
CC1Cc2ccccc2N1S(=O)(=O)c1cccc(C(=O)N2CC(=O)Nc3ccccc32)c1 (configuration not stated) | -0.6 | 1.9 | -17 | -11 | 0.4% | 13
Cc1ccc(Nc2cc(C)nc3c(C)ccc([N+](=O)[O-])c23)cc1 | 4.3 | 3.5 | -67* | ? | 21% | 61
COC(=O)c1ccc(NC(=O)c2c(Br)cnn2C)cc1 | -0.7 | 3.3 | 4 | -1 | -1.4% | 4
CCn1c(-c2ccc(C)cc2)n[nH]c1=S | -1.4 | -0.3 | 1 | 2 | -1.1% | -7
Cc1ccc(CSCC(=O)NCCCN2CCOCC2)cc1 | 15 | 1.1 | · | 20 | 0.7% | -26
COc1ccc(NC(=O)/C(C#N)=C\c2ccc(-c3cc(C(=O)O)ccc3C)o2)cc1 | -3.9 | 2.1 | ? | ? | 2.5% | -1
Clc1ccc(-n2nnnc2CN2CCOCC2)cc1 | -2.3 | 0.0 | -3 | 8 | · | 2
O=C(c1cccc(NS(=O)(=O)c2ccccc2)c1)N1CCCCC1 | -4.4 | -1.0 | 11 | -3 | 2.9% | 9
O=C(Nc1ccccc1)OCc1cc(-c2ccc(Cl)cc2)on1 | 1.6 | 2.3 | -2 | 8 | ? | -2
CCCCc1ccc(S(=O)(=O)NCCc2ccncc2)cc1 | -2.3 | -0.5 | 1 | 3 | 7.4% | 2
Cc1ccc(SC(C)C(=O)Nc2cccc(N(C)S(C)(=O)=O)c2)cc1 (configuration not stated) | 0.2 | -0.6 | 6 | -1 | ? | 3
Cc1ccc(S(=O)(=O)CCC(=O)Nc2nnc(CC(C)C)s2)cc1 | 0.5 | 0.1 | -25 | 5 | 2.5% | 19
Clc1ccc(-c2cccc3nccn23)c(Cl)c1 | -8.3 | -0.7 | 2 | 3 | 0.8% | ·
CCC(=O)Nc1nc2ccc(NC(=O)COc3ccccc3)cc2s1 | -3.4 | 1.7 | 5 | 6 | 5.0% | 0
O=S(=O)(NCc1ccc2c(c1)OCO2)c1cccc2cccnc12 | -3.1 | -0.8 | 5 | 0 | 2.8% | -2
O=[N+]([O-])c1cccc(C(=Nc2cccc(Cl)c2)NO)c1 | -2.0 | -0.1 | 3 | -5 | 2.6%[38.3 µM] | 58
CC(OC(=O)c1ccc(O)cc1)C(=O)Nc1cc(C(F)(F)F)ccc1Cl (configuration not stated) | 2.7 | 1.1 | 7 | 3 | ? | 2
Cc1ccc(-n2c(CNc3cccc(Cl)c3)n[nH]c2=S)cc1 | -5.3 | 2.9 | 8 | -5 | 2.2% | 7
COc1cccc(N(C(=O)CNC(=O)c2ccco2)C(C(=O)NC2CCCC2)c2cccnc2)c1 (configuration not stated) | -6.0 | -1.3 | -6 | 15 | -0.9% | -3
CCOc1ccc(CNC(=O)Cn2nc(C)c3nn(-c4ccc(Cl)cc4)c(C)c3c2=O)cc1OC | · | 0.6 | · | · | 2.3% | 4
CCOC(=O)c1c(S(=O)(=O)N2CCCCC2C)c(C)n(C)c1C (configuration not stated) | -0.2 | 0.1 | · | -2 | -0.1% | -18
CC(C)C[C@@H]1CC2=C(C(=O)OC(C)(C)O2)[C@H](c2ccc(Cl)cc2)O1 | · | -0.5 | 6 | 14 | 4.2% | ·
O=C(O)C(Cc1ccccc1)n1c(=S)[nH]c2ccccc2c1=O (configuration not stated) | 2.1 | -0.2 | 1 | 5 | 4.3% | -8
CC1CCCCN1C(=O)Cn1c(=O)oc2cc(S(=O)(=O)N3CCCC3)ccc21 (configuration not stated) | -4.3 | -0.5 | 4 | -2 | 3.3% | 0

Structures above printed as active in CtBP-E1A inh:
Structure | D2 ag | CtBP-E1A inh | Six1-Eya2 inh | PINK1 modulator | TRPML1 blocker
COc1cccc(/C=N/NC(=O)c2ccncc2)c1OC(=O)c1ccc(Br)cc1 | 9.0 | -81* | ? | -1.3% | -17
Cc1ccc(Nc2cc(C)nc3c(C)ccc([N+](=O)[O-])c23)cc1 | 4.3 | -67* | ? | 21% | 61
